Compound activity as filed in PubChem BioAssay.
MenB inh: inhibitors of Mycobacterium tuberculosis MenB enzyme; P9WNP5; inhibition, %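 (about 12 µg/mL by stock and volumes)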; 0.43% of 100,000 active; AID 540299; MenB enzyme assay, absorbance read-out; some hits fall short of the stated cut;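 active = mean of two replicates above 30%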;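 also: 0% = no compound and 100% = wells with inactive enzyme; the first replicate is given; strong numbers were not always called active; inactives centre near -10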
Target sequence (P9WNP5 whole entry, looked up): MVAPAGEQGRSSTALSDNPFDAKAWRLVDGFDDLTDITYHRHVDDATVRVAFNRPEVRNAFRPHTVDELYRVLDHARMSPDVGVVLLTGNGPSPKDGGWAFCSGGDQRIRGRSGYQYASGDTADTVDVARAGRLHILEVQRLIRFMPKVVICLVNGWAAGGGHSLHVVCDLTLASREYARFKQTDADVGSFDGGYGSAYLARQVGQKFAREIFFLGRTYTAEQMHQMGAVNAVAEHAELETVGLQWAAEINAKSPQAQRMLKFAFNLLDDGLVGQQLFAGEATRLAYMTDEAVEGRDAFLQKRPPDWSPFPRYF
MbtI inh: inhibitors of Mycobacterium tuberculosis siderophore enzyme MbtI; P9WFX0; purified MbtI enzyme, fluorescence intensity read-out; inhibition, %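 (about 17 µg/mL by stock and volumes)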; 0.89% of 100,000 active; AID 493033;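 active = above 50% in both replicates, above 80% if mildly self-fluorescent; inactive = the rest, strongly fluorescent compounds included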;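 also: 0% = mean of negative and 100% = mean of positive controls; one replicate is shown; some compounds called inactive have numbers as strong as hits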
Polio RdRp inh: poliovirus RNA polymerase inhibition; poliovirus polymerase elongation, fluorescence polarization; stronger effect = lower value; 0.66% of 150,000 active; % elongation, % (compound at 16.7 µg/mL); P03300; AID 588519; in the data active = % elongation below about 90%; also: some results filed as inactive read as strong as hits
Target sequence (P03300 1749-2209 limits assumed): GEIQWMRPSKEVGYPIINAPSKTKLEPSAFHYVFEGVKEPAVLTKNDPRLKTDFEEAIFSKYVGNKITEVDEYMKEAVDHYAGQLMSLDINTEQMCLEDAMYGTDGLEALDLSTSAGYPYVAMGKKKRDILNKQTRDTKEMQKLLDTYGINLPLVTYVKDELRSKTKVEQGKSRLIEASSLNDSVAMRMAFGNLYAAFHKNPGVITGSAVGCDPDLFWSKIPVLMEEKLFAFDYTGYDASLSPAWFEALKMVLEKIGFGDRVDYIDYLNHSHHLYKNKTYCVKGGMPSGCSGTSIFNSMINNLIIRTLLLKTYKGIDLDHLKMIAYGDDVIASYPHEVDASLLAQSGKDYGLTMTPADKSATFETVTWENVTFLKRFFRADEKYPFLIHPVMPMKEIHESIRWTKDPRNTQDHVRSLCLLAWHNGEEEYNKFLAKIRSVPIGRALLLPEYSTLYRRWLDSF
Polio RdRp inh intensity: also measured in Polio RdRp inh; calls as there; % elongation; measured here: total intensity read-out; formula for this scale not given here;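 total fluorescence in place of polarization; lower means less elongation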
* hit, by the source's call; i = inactive; . = no result given; & = joins results of further samples.

SMILES	MenB inh	MbtI inh	Polio RdRp inh	Polio RdRp inh intensity
O=C(O)CCC(=O)Nc1ccc(S(=O)(=O)Nc2ccc(F)cc2)cc1	-20	2	104	102
CCOc1ccc(NC(=O)CCCn2c(=O)c3cccn3c3ccccc32)cc1	-22	6	104	99
Cc1cc2nsnc2c(S(=O)(=O)NCC(=O)O)c1C	28	20	101	100
COc1cccc(/C=N/NC(=O)CC2C(=O)NN=C2C)c1O (configuration not stated)	7	11	100	101
Cc1cc(C(=O)OCc2csc(CC(=O)Nc3ccccc3C)n2)c(C)o1	-34	-5	102	109
COC(=O)C1SCCN1S(=O)(=O)c1ccc(-c2cc(C(F)(F)F)on2)s1 (configuration not stated)	-12	-10	103	110
O=C(NCC(c1ccco1)N1CCc2ccccc21)Nc1ccccc1 (configuration not stated)	-21	-8	104	108
O=C1CCCC2=C1C(c1ccccn1)n1ncnc1N2 (configuration not stated)	12	10	99	101
Cc1cc(C)nc(Nc2ccc(S(=O)(=O)Nc3ccccn3)cc2)n1	-22	3	102	108
O=C(Cc1n[nH]c(=O)c2ccccc12)N/N=C/C=C/c1ccccc1	-7	0	102	103
CNC(=O)c1ccsc1NC(=O)c1ccc(F)cc1	-5	26	103	106
CCSc1nnc(C2CCCN(CC(=O)N3CCN(c4ccccc4)CC3)C2)n1CC (configuration not stated)	-34	-6	105	103
O=C1CCCC1Sc1nnc(-c2ccncc2)n1-c1ccc(F)cc1 (configuration not stated)	2	-2	96	104
COc1ccc(C(=O)n2c3c(c(=O)n2-c2ccccc2)Cc2ccc(OC)cc2O3)cc1	54*	0	101	104
CN=C1N=P(NC)(NC)N=C(c2ccccc2)N1	0	0	101	99
CCc1ccc(NC(=O)COC(=O)c2ccco2)cc1	-15	6	102	100
O=C(COc1nncc2ccccc12)NC1CCS(=O)(=O)C1 (configuration not stated)	8	5	105	101
Cc1ccc(-c2nn(-c3ccccc3)cc2/C=C/C(=O)OCC(=O)c2c(N)n(C)c(=O)n(C)c2=O)o1	-12	12	103	109
Cc1nnc(NC2=NCCC2)o1	6	-21	105	107
CC(=O)N1CCc2cc(C(=O)CN3CC(C)CC(C)C3)ccc21 (configuration not stated)	-27	39	101	102

Fetched by structure from the entries so far (three):
SMILES	MenB inh	MbtI inh	Polio RdRp inh	Polio RdRp inh intensity
CCOc1ccc(NC(=O)CCCn2c(=O)c3cccn3c3ccccc32)cc1	-22	6	104	99
CN=C1N=P(NC)(NC)N=C(c2ccccc2)N1	0	0	101	99
COC(=O)C1SCCN1S(=O)(=O)c1ccc(-c2cc(C(F)(F)F)on2)s1 (configuration not stated)	-12	-10	103	110

Following part.
SMILES	MenB inh	MbtI inh	Polio RdRp inh	Polio RdRp inh intensity
CCc1cc(/C(Cc2cscn2)=N\O)c(O)cc1O	-17	-1	108	109
CCOC(=O)c1cn(CC(C)C)c(=O)c2ccccc12	-17	3	101	102
N#Cc1ccccc1NC(=O)CC1Sc2ccccc2NC1=O (configuration not stated)	-7	-4	100	102
CCOC(=O)c1c(C)oc2nc(COc3ncnc4c3cnn4-c3ccccc3)nc(N)c12	-22	-6	109	128
Cc1nnc(N2C(=O)C3C4C=CC(C4)C3C2=O)s1 (configuration not stated)	-9	-18	101	105
N#CC1=C(c2ccc(Cl)cc2)COC1=O	8	12	102	110
NC(=O)NC(CC(=O)Nc1ccc(S(N)(=O)=O)cc1)c1ccccc1Cl (configuration not stated)	-6	7	103	103
COc1ccc(-c2nnc(SC)n2-c2ccccc2)cc1	-16	-11	103	102
C/C(=C/C(=O)C(F)(F)F)N1CCc2ccccc2C1	-14	12	99	93
CCCCC(C)(C)[C@H](O)/C=C/[C@H]1[C@H](O)CC(=O)[C@@H]1C/C=C\CCCC(=O)O	3	-20	101&101	107&105
CC(C)(C)c1ccc(/C=C2\C(=O)C3CCN2CC3)cc1	-42	25	102	102
O=C(Nc1ccc(S(=O)(=O)NC2=NCCCCC2)cc1)C1=NN(c2ccccc2)C(=O)CC1	4	16	99	102
O=C(CCSc1nnc(-c2ccncc2)o1)Nc1ccccc1	8	-8	92	79
CCOc1ccc(S(=O)(=O)Nc2cccc(-c3cn4cccc(C)c4n3)c2)cc1	-25	i	103	104
O=c1[nH]nc(Sc2ncn[nH]2)c(=O)[nH]1	-8	10	98	97
CO[C@H]1C[C@H](O[C@H]2[C@H](C)[C@@H](OC3O[C@H](C)C[C@H](N(C)C)[C@H]3O)[C@@H](C)C[C@]3(CO3)C(=O)[C@H](C)[C@@H](O)[C@@H](C)[C@@H](C)OC(=O)[C@@H]2C)O[C@@H](C)[C@@H]1O (some centres not stated)	-4	-3	99	97
O=C(NCc1cccnc1)c1cccc(C(=O)NCc2cccnc2)c1	14	-3	105	103
CC(C)C1N(c2ccccc2)CCN1c1ccccc1	-12	-16	101	103
CCN(CC)C(=O)C(N)Cc1ccccc1 (configuration not stated)	-1	-29	109	111
Clc1ccc(SCCc2nc3ccccc3o2)cc1	-27	7	104	105

Some entries already given, reduced to Polio RdRp inh intensity.
SMILES	Polio RdRp inh intensity
COc1ccc(-c2nnc(SC)n2-c2ccccc2)cc1	102
C/C(=C/C(=O)C(F)(F)F)N1CCc2ccccc2C1	93
CCCCC(C)(C)[C@H](O)/C=C/[C@H]1[C@H](O)CC(=O)[C@@H]1C/C=C\CCCC(=O)O	107&105
CC(C)(C)c1ccc(/C=C2\C(=O)C3CCN2CC3)cc1	102
O=C(Nc1ccc(S(=O)(=O)NC2=NCCCCC2)cc1)C1=NN(c2ccccc2)C(=O)CC1	102
O=C(CCSc1nnc(-c2ccncc2)o1)Nc1ccccc1	79

Some of the entries so far, in markdown.
| SMILES | MenB inh | MbtI inh | Polio RdRp inh | Polio RdRp inh intensity |
| --- | --- | --- | --- | --- |
| NC(=O)NC(CC(=O)Nc1ccc(S(N)(=O)=O)cc1)c1ccccc1Cl (configuration not stated) | -6 | 7 | 103 | 103 |
| COc1ccc(-c2nnc(SC)n2-c2ccccc2)cc1 | -16 | -11 | 103 | 102 |
| C/C(=C/C(=O)C(F)(F)F)N1CCc2ccccc2C1 | -14 | 12 | 99 | 93 |
| CCCCC(C)(C)[C@H](O)/C=C/[C@H]1[C@H](O)CC(=O)[C@@H]1C/C=C\CCCC(=O)O | 3 | -20 | 101&101 | 107&105 |
| CC(C)(C)c1ccc(/C=C2\C(=O)C3CCN2CC3)cc1 | -42 | 25 | 102 | 102 |
| O=C(Nc1ccc(S(=O)(=O)NC2=NCCCCC2)cc1)C1=NN(c2ccccc2)C(=O)CC1 | 4 | 16 | 99 | 102 |
| O=C(CCSc1nnc(-c2ccncc2)o1)Nc1ccccc1 | 8 | -8 | 92 | 79 |

Other results:
SMILES	MenB inh	MbtI inh	Polio RdRp inh	Polio RdRp inh intensity
C#C[C@]1(O)CC[C@H]2[C@@H]3CCc4cc(OC)ccc4[C@H]3CC[C@@]21C	-6	-12	102	101
CCOc1ccccc1OCCCC(=O)O	.	-10	98	95
CCOC(=O)c1nn(-c2ccccc2)c(=O)c2c(N)c(C#N)ccc12	-24	42	96	93
CN(C)C(=S)c1nc2ccccc2[nH]1	-56	11	106	107
CC(C)n1c(SCC(=O)NC2CC2)nnc1-c1ccco1	5	0	102	102
Cc1oc(CC(C)C)cc1C(N)=O	-7	-2	101	103
O=C1CC(Nc2ccccc2)C(=O)N1Cc1ccccc1 (configuration not stated)	7	16	100	99
O=C(N/N=C/c1ccc(-n2ccnc2)cc1)c1ccc2c(=O)n3c(nc2c1)CCC3	-8	141	102	110
CC[C@H](C)C(=O)O[C@H]1C[C@@H](C)C=C2C=C[C@H](C)[C@H](CC[C@@H]3CCCC(=O)O3)[C@H]21	-14	.	104	102
COC(=O)c1cc(COC(=O)/C=C/c2ccc(F)cc2)oc1C	-15	-13	104	105
O=C(O)/C=C/c1ccc2c(-c3ccccc3)onc2c1	-77	40	104	108
Cc1ccc2c(c1)N(CC(=O)NC(C)C)C(=O)c1cccnc1O2	-13	-8	107	100
CCN1CCC(NC2c3ccccc3-c3ccccc32)CC1	-13	7	100	103
CCOC(=O)c1ccc(NC(=O)NC2OC(CO)C(O)C(O)C2O)cc1 (configuration not stated)	9	.	104	98
Cc1ccc(C)c2[nH]c(=O)c(CN(Cc3ccco3)Cc3nnnn3C(C)(C)C)cc12	-24	-28	100	102
COC(=O)CCC(=O)c1cc2cc(Br)ccc2o1	2	.	108	109
CCC(CO)N=CC1=C(O)CC(c2ccccc2)CC1=O (configuration not stated)	-13	20	100	101
CC(=O)Nc1ccc(Oc2cncc(Cl)c2)nc1	-18	-4	109	99
O=c1cc(-c2ccccc2)nc(N2CCN(Cc3ccc4c(c3)OCO4)CC2)[nH]1	8	-4	99	101
CC1CCCC(NC(=O)COC(=O)CSc2nnc(-c3ccc(Cl)cc3)o2)C1C (configuration not stated)	-10	1	103	109

Structures from the list above that have a cyano group, in the order listed:
SMILES	MenB inh	MbtI inh	Polio RdRp inh	Polio RdRp inh intensity
N#Cc1ccccc1NC(=O)CC1Sc2ccccc2NC1=O (configuration not stated)	-7	-4	100	102
N#CC1=C(c2ccc(Cl)cc2)COC1=O	8	12	102	110
CCOC(=O)c1nn(-c2ccccc2)c(=O)c2c(N)c(C#N)ccc12	-24	42	96	93

The list goes on:
SMILES	MenB inh	MbtI inh	Polio RdRp inh	Polio RdRp inh intensity
Cc1ccc(S(=O)(=O)NC(C)C(=O)N2CCN(c3cccc(Cl)c3)CC2)cc1 (configuration not stated)	-22	1	102	102
CC1(C)COP(=S)(C(Nc2ccc(Cl)cc2)c2ccc(O)cc2)OC1 (configuration not stated)	-5	-12	105	109
COC(CNC(=O)c1ccc2c(c1)ncn2-c1ccc(F)cc1F)OC	1	-13	101	104
COc1ccc(-n2nnnc2SC(C)C(=O)Nc2ccc(S(=O)(=O)N3CCOCC3)cc2)cc1 (configuration not stated)	7	-11	102	104
CC(OC(=O)Cc1ccc(F)cc1)C(=O)Nc1ccc(S(N)(=O)=O)cc1 (configuration not stated)	-31	8	100	100
COc1ccc(CCNC(=O)C2c3ccccc3C(=O)N2C2CCCC2)cc1OC (configuration not stated)	-15	-10	104	98
CC12CC3CC(C)(C1)CC(C(=O)NN)(C3)C2	0	1	105	98
COC(=O)c1cc(COC(=O)c2cc3ccccc3cc2O)oc1C	-48	-9	105	102
CCN(C(=S)NC(=O)C1CCCC1)C1CCCCC1	-5	-1	103	103
CC1=C(C(=O)OC2CCCC2C)C(c2ccc(Cl)cc2)NC(=O)N1 (configuration not stated)	-30	-7	100	100
CC1=Nc2ccccc2NC(=O)C1Sc1nc2ccccc2s1 (configuration not stated)	-26	-202	106	105
S=C1NCN(CCc2ccccc2)CN1CCCN1CCOCC1	-16	-7	104	100
CC(=O)NC(Cc1ccccc1)C(=O)NC1CCN(c2nnnn2-c2ccccc2)CC1 (configuration not stated)	-71	-7	102	99
COc1ccc(-c2nc(SCC(N)=O)c3c(=O)n(C)c(=O)n(C)c3n2)cc1	-19	-54	102	104
O=C(CN1CCN(c2ccc(O)cc2)CC1)N(C1CCCCC1)C1CCS(=O)(=O)C1 (configuration not stated)	0	68	103	98
Cc1cc2c3c([nH]c2cc1S(=O)(=O)NCCCc1ccco1)CCCC3=O	-26	-9	101	102
COC(=O)c1ccc2c(=O)[nH]c(COC(=O)c3cccnc3Nc3ccccc3OC)nc2c1	-6	-2	103	110
O=C(OCc1cccc(C(F)(F)F)c1)c1ccccc1F	-23	-21	103	94
C/C(=N\NC(=O)Cn1nnc(-c2ccccc2)n1)c1nonc1C	-32	-15	101	104
Cc1ccc(C(CC(=O)N2CCOCC2)c2ccccc2)c(O)c1C (configuration not stated)	-79	-10	102	101
C=C(C)C(=O)Nc1ccc(O)c(-c2nc3ccccc3[nH]2)c1	-34	16	101	104
O=P(CN1CCN(c2ccccc2)CC1)(N1CCCCC1)N1CCCCC1	-9	6	99	97
O=C(Oc1ccc(C2SCCS2)cc1)c1cccc(C(F)(F)F)c1	-2	.	105	105
CNCc1c(C)nn(Cc2ccccc2Cl)c1C	-15	-8	.	.
CN(Cc1ccccc1)C(=O)C1CCCN1S(=O)(=O)c1ccc2c(c1)n(C)c(=O)c(=O)n2C (configuration not stated)	-7	28	101	101
CCCCc1c(C)c(C#N)c2[nH]c3ccccc3n2c1=O	-5	104	101	105
CC(Sc1nnnn1-c1ccccc1)c1nc2scc(-c3ccccc3)c2c(=O)[nH]1 (configuration not stated)	-8	-1	114	119
C/C(=C\C(=O)C(F)(F)F)NCc1ccccn1	-31	-3	101	103
CC(=O)Nc1ccc(NC(=O)C2CCCCN2C(=O)C2CCC(C)CC2)cc1 (configuration not stated)	-10	-12	105	106
CCC(C)NCCOc1ccc(Cl)c(Cl)c1 (configuration not stated)	10	-3	100	105
CCOc1ccc(NC(=O)C(C)C(Cc2ccc(C)cc2)C(=O)O)cc1 (configuration not stated)	-18	1	102	102
Cc1sc2ncnc(NCC3CN(Cc4ccccc4)CCO3)c2c1C (configuration not stated)	-10	-5	107	102
CCC(C)NC(=O)C1CCN(c2ncccn2)CC1 (configuration not stated)	-4	1	102	103
c1ccc2nc(SCc3cn4ccccc4n3)cnc2c1	.	11	102	104
CC(=O)Nc1sc2c(c1C#N)CCC2	.	-2	103	105
